# D2 ag: Beta-Arrestin HTS for Positive Allosteric Modulators of the Human D2 Dopamine Receptor: Agonists | DiscoveRx PathHunter D2 beta-arrestin, luminescence, 90 min; 100% = 57 uM dopamine signal | AID 624465, 2012 | activation, % (concentration not given with the values) | 360,000 tested, 0.084% active | D(2) dopamine receptor (Homo sapiens), P14416; in the data active = activation above about 40%; inconclusive = about 15% to 40%; inactive = below about 15%; further: compound concentration not given in the record; the text of the record calls up to 30% inactive
# Target sequence (P14416 whole entry, looked up): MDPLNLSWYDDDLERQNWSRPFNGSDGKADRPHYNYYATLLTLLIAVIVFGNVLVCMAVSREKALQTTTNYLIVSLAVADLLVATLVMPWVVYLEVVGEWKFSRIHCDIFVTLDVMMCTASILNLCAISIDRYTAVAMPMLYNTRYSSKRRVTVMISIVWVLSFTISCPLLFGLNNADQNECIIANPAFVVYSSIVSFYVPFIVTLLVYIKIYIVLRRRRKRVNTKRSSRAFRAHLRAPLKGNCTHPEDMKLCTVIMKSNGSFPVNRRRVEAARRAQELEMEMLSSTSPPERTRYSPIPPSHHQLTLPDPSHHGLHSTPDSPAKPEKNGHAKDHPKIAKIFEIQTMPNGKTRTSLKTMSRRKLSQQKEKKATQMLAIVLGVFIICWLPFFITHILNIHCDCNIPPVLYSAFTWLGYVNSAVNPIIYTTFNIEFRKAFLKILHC
#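 DiscoveRx PathHunter D2 beta-arrestin cells (2,100/well) attached overnight, then compound-stimulated 90 min at 37 C in HBSS/10 mM HEPES/0.1% Tween-20 buffer; beta-galactosidase complementation read by luminescence after 1 h at ambient temperature. Dopamine 57 uM final (EC100) as control.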
# CtBP-E1A inh: qHTS Assay for Inhibitors of the CtBP/E1A Interaction | CtBP / adenovirus E1A interaction (AlphaScreen) | AlphaScreen GST-E1A/His-CtBP binding, 1536-well; hits give low values; control for the full effect not named in the record | activity change, % (test concentration not listed) | 340,000 tested, 0.49% active | AID 651724, 2012; in the data active means activity change below about -65%; inconclusive means about -30% to -65%; inactive means above about -30%; further: on the % scale 0 is the no-effect control and ±100 the full control effect; compound concentration not given in the record
#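 Protein mix (5X: 125 nM each GST-E1A, His-CtBP) was incubated with pinned compound 2 h at 37 deg C in dark, in 50 mM Tris pH 8.0 buffer with 300 mM NaCl. Glutathione donor and nickel acceptor beads followed; AlphaScreen signal read after 1 h.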
# PINK1 expr mod: A Quantitative High throughput Screen to Identify Chemical Modulators of PINK1 Expression; Potency, µM (top dose mostly 76.6 µM), for inactives: at the highest dose activation (PINK1 increase), actives largely listed as activators; 410,000 tested, 0.2% active; AID 624263, 2012; PINK1 immunofluorescence, high-content cytometry, 24 h; active = well fitted activation curve with a large enough effect; inconclusive = small, poorly fitted or top-dose-only effect; inactive = flat fitted curve, though single readings scatter; cell line not stated here;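 further: potency means the concentration at half of the fitted maximal effect; % of control where 0% means no effect; nearly all actives have a fitted effect of over 65% in size; a mitochondrial uncoupler was the plate control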
#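 Stable cell line treated 24 h with compounds at 5 concentrations (CCCP controls), then fixed and immunostained for PINK1 plus nuclear and cell stains; PINK1 immunofluorescence quantified by laser-scanning microplate cytometry.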
# Six1-Eya2 inh: qHTS Assay for Inhibitors of the Six1/Eya2 Interaction | 360,000 tested, 0.56% active | Homeobox protein SIX1 (Homo sapiens) + Protein phosphatase EYA2 (Homo sapiens), … | activity change, % (no concentration beside the values) | AID 651725, 2012 | AlphaScreen GST-Six1/His-Eya2 binding, biochemical; hits give low values; control for the full effect not named in the record; in the data active = activity change below about -65%; inconclusive = about -30% to -65%; inactive = above about -30%; further: on the % scale 0 is the no-effect control and ±100 the full control effect; compound concentration not given in the record
#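 Homogeneous AlphaScreen proximity assay pairing GST-Six1 with His-tagged Eya2 (added as 5X mix: 250 nM and 500 nM) in 50 mM Tris pH 8.0, 300 mM NaCl, 1 mM TCEP. Glutathione donor and nickel acceptor beads; 1 h, 37 °C, dark.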
# D2 PAM: Beta-Arrestin HTS for Positive Allosteric Modulators of the Human D2 Dopamine Receptor: Potentiators | 360,000 tested, 0.23% active | DiscoveRx D2 beta-arrestin cells, luminescence, 90 min; 100% = 57 uM dopamine signal | D(2) dopamine receptor (Homo sapiens), P14416 | potentiation, % (concentration not given with the values); active = potentiation of 50% or more; inconclusive = 30% to 50%; inactive = 30% or less;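 further: compound concentration not given in the record; tested on top of an EC20 dose of dopamine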
#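 PathHunter beta-arrestin assay in DiscoveRx D2 cells. Compounds were added with an EC20 of dopamine (50 nM final) for 90 min at 37 deg C. Luminescence was read 1 h after detection reagent, with 57 uM dopamine as the EC100 control.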
# TRPV1 PAM: HTS Assay for Compounds that Act as Potentiators of the Vanilloid Receptor 1 | TRPV1-expressing cells, Fluo-8 calcium influx, capsaicin EC20 potentiation; host cell line not named in the record; control for the full effect not named in the record | Transient receptor potential cation channel subfamily V member 1 (Homo sapiens), Q8NER1 | potentiation, % at 8.33 µM | 320,000 tested, 0.02% active; active means potentiation above 80%; inconclusive means 30% to 80%; inactive means below 30%; further: 0% is about no effect
#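 Cells expressing TRPV1 were dye-loaded with Fluo-8 and read kinetically: 10 s baseline, 3 min after compound (agonist portion), then 2 min after EC20 capsaicin (allosteric enhancer portion). Calcium-bound dye fluorescence at 480/520 nm.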
# Sfp inh: qHTS Assay for Inhibitors of Bacillus subtilis Sfp phosphopantetheinyl transferase (PPTase); 4'-phosphopantetheinyl transferase ffp (Bacillus subtilis), Q9F4F7; Biochemical Sfp PPTase activity, qHTS; Potency, µM, without a hit: max response, negative = inhibition, usual class: inhibitors; 310,000 tested, 3.5% active; AID 1490, 2009; active means well fitted inhibition curve with a large enough effect; inconclusive means small, poorly fitted or top-dose-only effect, or another doubt; inactive means no such curve, though single readings can be large or run the other way;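 further: the enzyme is Sfp with the accession as filed and its product quenches rhodamine fluorescence; potency means the concentration at half of the fitted maximal effect; 0% = enzyme reaction without inhibitor and -100% = no enzyme wells; top concentration of the series not given in the record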
#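 Compounds were incubated with enzyme (final 15 nM) for 15 min at room temperature before substrate addition started the reaction. Fluorescence at 525 nm excitation, 598 nm emission was recorded immediately and after 30 minutes.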
# Starred values were filed as active, the others as inactive; ? = inconclusive; . = no result given; & = joins results of further samples; [ ] = another dose, or the depositor's remark.
SMILES,D2 ag,CtBP-E1A inh,PINK1 expr mod,Six1-Eya2 inh,D2 PAM,TRPV1 PAM,Sfp inh
N#CCCN(C(=O)COC(=O)c1n[nH]c2ccccc12)c1ccccc1,2.8,4.4,0.4%,-1.2,-5.3,.,.
Cc1cccc(C)c1-n1nnnc1C(c1ccnc2ccccc12)N1CCCN(C(=O)OC(C)(C)C)CC1 (stereo unspecified),.,3.9,2.7%,2.9,.,.,.
CC(=O)Nc1cccc(OCC(=O)NC(C)C(C)C)c1 (stereo unspecified),2.4,5.0,-0.3%,0.2,0.9,-5.9,0.7%
Cc1ccc(C)c(C(=O)NCCN(C)C)c1,-0.1,0.4,-1.4%,1.2,-15.8,1.5,17.1%
CC1=CC(C)C2(CO)COC(c3ccc(O)cc3)C1C2C (stereo unspecified),1.7,-0.9,7.6%,0.6,0.3,4.5,12.2%
CC(=O)N1CCC(CCCC2CCN(C(C)=O)CC2)CC1,-0.6,-0.3,-0.2%,-7.9,-0.7,?,.
Cc1ccc(Cn2c(=N)c(C(=O)NC3CCCCC3)cc3c(=O)n4ccccc4nc32)cc1,-3.2,2.1,?,3.7,-29.6,-2.4,?
Cc1cc(C)nc(SCC(=O)OCC(=O)Nc2nc3ccccc3s2)n1,0.6,-4.4,0.3%,-0.1,-6.8,9.2,-25.4%
Nc1ccc(Cl)c(NC(=O)c2cccs2)c1,1.0,-2.6,1.5%,-7.4,12.9,-10.8,-19.6%
Fc1ccccc1CSc1ncnc2sc3c(c12)CCCC3,-4.9,25.7,10.5%,22.0,-9.8,6.3,?
COc1ccc(N2CC(NC(=O)N3CCN(c4ccccc4)CC3)CC2=O)cc1 (stereo unspecified),-3.6,0.0,1.5%,14.6,-8.9,17.3,-1.8%
Cc1cc2nnc(SC3CCCCN(C(=O)c4ccc(F)cc4)C3=O)n2c2ccccc12 (stereo unspecified),-1.2,2.6,2.9%,-5.2,-4.7,2.5,0.7%
CS(=O)(=O)N(CC(=O)NCC1CCCO1)c1cc(Cl)c(Cl)cc1Cl (stereo unspecified),6.1,4.7,-2.4%,-0.1,4.8,2.8,5.0%
Cc1cc(O)ccc1N/C=C(\C#N)c1nc2ccccc2o1,-4.4,-2.7,?,5.6,1.5,-22.2,-14.1%
Cc1ccc(NC(=O)CCNS(=O)(=O)c2cccc3nonc23)cc1Cl,-2.3,-1.2,1.2%&2.5%,-4.6,-8.5,-3.3,20.9%
CNC(=O)c1c(I)c(C(=O)NCC(=O)Nc2c(I)c(C(=O)O)c(I)c(C(=O)NCCO)c2I)c(I)c(N(C)C(C)=O)c1I,-6.1,8.0,0.7%,3.8,10.7,-9.1,8.4%
Cc1cc(=O)n2[nH]c(-c3ccccc3Cl)cc2n1,-1.9,8.5,2.1%,6.7,-4.3,5.3,19.5%
O=C(COC(=O)[C@@H]1CC(O)CN1S(=O)(=O)c1ccc2c(c1)OCCO2)Nc1ccccc1F (stereo partly specified),-2.0,1.7,0.5%,0.2,-9.0,?,3.3%
CC(C)c1nc2sc3c(=O)[nH]cnc3c2c2c1CCC2,-1.6,-2.3,-1.1%,-8.4,-8.2,-18.6,22.8%
CCOC(=O)/C=C1\CN(Cc2cc(OC)c(OC)c(OC)c2)S(=O)(=O)c2ccc(C(F)(F)F)cc21,-0.3,-0.2,0.9%,3.8,-3.5,24.2,10.8%
O=C(Nc1cccc(O)c1)c1ccc(NC(=O)c2cccs2)cc1,1.0,?,3.5%,?,10.5,11.9,8.4%
Nn1c(SCc2cccc(Br)c2)nnc1-c1cccnc1,-4.8,3.9,-0.8%,4.0,-4.2,7.2,12.0%
O=C1C=C(c2ccc(-c3ccccc3)cc2)C[C@@H](c2ccc(F)cc2)C1,-1.9,3.0,0.9%,-9.6,-4.3,5.8,.
O=C(Cn1c(=O)oc2ccccc21)NC(=O)NCc1ccco1,-1.0,-4.0,-0.1%,-12.8,-1.9,0.1,16.5%
O=C(CSCc1ccc([N+](=O)[O-])cc1)NC1CC1,-3.0,-18.3,0.7%,-7.3,-14.8,18.1,2.9%
# Other entries.
SMILES,D2 ag,CtBP-E1A inh,PINK1 expr mod,Six1-Eya2 inh,D2 PAM,TRPV1 PAM,Sfp inh
CCCOc1ncnc2c1[nH]c1ccc(C)cc12,-4.1,.,2.6%,-2.4,-25.1,.,6.3%
CCCNC(=O)c1cc(C2CCCCN2C(=O)c2ccc(C#N)cc2)on1 (stereo unspecified),-3.8,0.4,1.3%,0.0,-3.1,.,.
CC(C)(C)c1ccc(-n2ncc3c2CCCC3NC(=O)c2ccncc2)cc1 (stereo unspecified),1.6,3.6,19.0%,-0.4,3.2,.,.
CCOC1=NN(c2ncc(C(F)(F)F)cc2Cl)C(=O)/C1=C/N(C)C,-2.9,0.0,0.8%,-0.1,-2.4,5.8,7.8%
Cc1[nH]c2ccccc2c1/C=N\NC(=O)c1ccccc1Cl,-1.9,13.4,0.5%,0.8,1.6,.,.
CCOc1ccc(-c2nnc(N)s2)cc1,-0.7,7.6,.,1.8,-9.2,0.4,8.5%
CCNC(=O)C1CCCN(C(=O)c2ccc3snnc3c2)CC1 (stereo unspecified),7.5,1.2,0.8%,7.0,1.8,.,.
Cc1ccc(N=C2NC(=O)c3cccc([N+](=O)[O-])c32)cc1,1.2,-0.3,2.6%,5.6,-7.5,8.6,-14.4%
CCOC(=O)C1=C(CS(=O)(=O)c2ccc(Cl)cc2)NC(=O)NC1c1ccc(O)c(OC)c1 (stereo unspecified),-2.3,-4.1,-1.6%,-0.5,-1.1,4.3,7.6%
C[C@H](CO)N1C[C@H](C)[C@@H](CN(C)S(C)(=O)=O)Oc2c(NC(=O)Nc3ccccc3)cccc2C1=O,2.3,-19.0,-0.5%,2.2,-5.7,.,.
CC(=O)C1N=NCC1c1ccccc1 (stereo unspecified),-0.5,9.1,2.0%,0.7,0.7,.,.
O=C(CSCc1ccccc1)Nc1cccc(C(=O)Nc2ccccc2C(=O)O)c1,0.6,-21.5,1.3%[38.3 µM],?,12.8,7.9,30.3%[activator]
CCOC(=O)c1c(C)nsc1NCc1ccccc1,-2.5,15.6,0.5%,49.5,-11.3,.,.
Nc1cc(-c2ccccc2)nn1Cc1ccc(Cl)cc1,-1.9,-2.5,4.5%,-6.2,2.1,2.9,9.7%
Cn1cc(-c2cccc(Cl)c2)cc(C#N)c1=O,1.4,-2.7,2.5%,-4.3,-7.3,11.4,13.2%
O=S(=O)(c1ccc(N2CCCCCC2)nc1)N1CCCC1,0.2,7.0,-0.6%,-0.4,-1.2,-6.4,16.7%
COc1ccc(NC(=O)CN2C(=O)C3CC=CCC3C2=O)cc1Cl (stereo unspecified),-2.1,2.0,-0.8%,0.6,-14.3,.,.
CC[C@@H]1C=C(C(=O)O)[C@H](c2ccc(C#N)cc2)N1S(=O)(=O)c1ccc(C)cc1,2.0,3.9,0.9%,2.2,.,.,.
CCOc1ccccc1C(=O)NC1CC2CCCC(C1)N2Cc1nnnn1Cc1ccco1 (stereo unspecified),1.0,-1.3,1.3%,5.8,-20.9,4.7,2.1%
O=C(c1ccc(Br)c(S(=O)(=O)N2CCOCC2)c1)N1CCN(C/C=C/c2ccccc2)CC1,-4.0,.,-1.5%,-2.5,-10.9,.,.
COC(=O)C(CC(C)C)NC(=O)CSc1nc(-c2ccccc2)c(C#N)c(=O)[nH]1 (stereo unspecified),-2.4,-1.3,1.4%,-28.6,-4.6,21.0,9.7%
COc1ccccc1C(=O)N1CCN(CCc2ccccc2)CC1,0.2,8.4,0.4%[38.3 µM],1.6,-14.5,5.3,0.3%
COc1ccc(C(=O)N2CC3(CC(c4cccc(NC(=O)CC(c5ccccc5)c5ccccc5)c4)=NO3)C[C@H]2C(N)=O)cc1 (stereo partly specified),-1.4,-0.7,0.6%,-1.0,2.0,?,7.3%
COc1ccc(/C=N/Nc2cc(C)nc3ccccc23)cc1,-1.1,?,-0.7%,-13.8,-26.3,15.4,28.2µM*
CC(=O)NC(c1ccc(F)c(F)c1)c1nc(-c2cc3ccccc3o2)cs1 (stereo unspecified),2.5,5.9,9.3%,0.8,3.1,.,.
# (further entries)
SMILES,D2 ag,CtBP-E1A inh,PINK1 expr mod,Six1-Eya2 inh,D2 PAM,TRPV1 PAM,Sfp inh
Cc1ccsc1C(=O)OC1CCOC1=O (stereo unspecified),1.3,4.5,-0.7%,2.0,2.7,2.0,12.6%
CC(=O)NC(CC(=O)N(C)Cc1c(F)cccc1Cl)c1ccccc1 (stereo unspecified),2.6,-22.6,0.4%,3.2,3.5,0.8,25.8%
CC1CCN(S(=O)(=O)c2ccc(C(=O)OC(C)C(=O)NC3CCCCC3C)cc2)CC1 (stereo unspecified),1.1,-0.2,5.2%,-1.3,13.5,12.9,5.7%
O=C1CC(C(F)(F)F)=NN1,-2.6,5.4,0.1%,7.2,0.6,3.4,1.3%
CC(C)C(OC(=O)C1CCCO1)C(=O)NC1CCCC1 (stereo unspecified),-2.0,4.9,-1.8%[38.3 µM],-0.4,0.6,0.1,12.2%
O=C(NCCCn1ccnc1)C(=O)NCc1ccccc1,-2.1,4.1,0.4%,-1.9,-3.0,-8.0,20.4%
Cc1cccn2c(=O)c3cc(C(=O)NCc4ccco4)c(=N)n(C4CCCC4)c3nc12,-0.4,2.0,4.9%,-1.4,0.8,-4.4,-0.1%
COC(=O)C1=C(C)N(CCCC(=O)O)C(=O)NC1c1ccccc1Cl (stereo unspecified),-1.4,-2.7,2.4%,0.7,-4.2,.,.
COC(=O)C(C)SC1=N/C(=C/c2ccc(-n3cncn3)cc2)C(=O)N1 (stereo unspecified),-2.2,3.0,0.1%,11.1,-6.8,-8.2,11.5%
CC(=O)Nc1ccc(S(=O)(=O)Nc2ccc(N3CCOCC3)c(F)c2)cc1,-2.7,4.3,-0.5%,22.8,10.1,14.4,-8.7%

# High-throughput results from PubChem.
